CtBP-E1A blk – qHTS Assay for Inhibitors of the CtBP/E1A Interaction | CtBP / adenovirus E1A interaction (AlphaScreen) | AlphaScreen GST-E1A/His-CtBP binding, 1536-well; active compounds read low; control for the full effect not named in the record | activity change, % (no concentration beside the values) | 340,000 tested, 0.49% active | AID 651724, 2012; in the data active means activity change below about -65%; inconclusive means about -30% to -65%; inactive means above about -30%; further: on the % scale 0 is the no-effect control and ±100 the full control effect
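Protein mix (5X: 125 nM each GST-E1A, His-CtBP) was incubated with pinned compound 2 h at 37 deg C in dark, in 50 mM Tris pH 8.0 buffer with 300 mM NaCl. Glutathione donor and nickel acceptor beads followed; AlphaScreen signal read after 1 h.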
gsp ag – qHTS for Agonist of gsp, the Etiologic Mutation Responsible for Fibrous Dysplasia/McCune-Albright Syndrome: qHTS. gsp mutant cells, cAMP HTRF, 30 min; control for the full effect not named in the record. Potency, µM (doses to about 76.9 µM), for the others: top-dose activation (cAMP increase), hits mostly activators. 340,000 tested, 0.13% active. AID 624287, 2012; active = well fitted activation curve with a large enough effect; inconclusive = small, poorly fitted or top-dose-only effect, or another doubt; inactive = no such curve, though single readings can be large or run the other way; cell line not stated here;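 further: phosphodiesterase inhibitor Ro 20-1724 added with compounds to block cAMP breakdown; potency means the concentration at half of the fitted maximal effect; nearly all actives have a fitted effect of over 60% in size; about a fifth of the inactives were tested at one dose only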
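Cells stably selected in G418 were plated at 2000/well, grown 16-24 hr, then given compounds in DMSO with the PDE inhibitor […] (300 uM solution added) for 30 min at 37C; cAMP was read by HTRF.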
D2 agonist – Beta-Arrestin HTS for Positive Allosteric Modulators of the Human D2 Dopamine Receptor: Agonists; 360,000 tested, 0.084% active; D(2) dopamine receptor (Homo sapiens), P14416; activation, % (no concentration beside the values); DiscoveRx PathHunter D2 beta-arrestin, luminescence, 90 min; 100% = 57 uM dopamine signal; AID 624465, 2012; in the data active = activation above about 40%; inconclusive = about 15% to 40%; inactive = below about 15%; further: compound concentration not given in the record; the text of the record calls up to 30% inactive
Target sequence (P14416 whole entry, looked up): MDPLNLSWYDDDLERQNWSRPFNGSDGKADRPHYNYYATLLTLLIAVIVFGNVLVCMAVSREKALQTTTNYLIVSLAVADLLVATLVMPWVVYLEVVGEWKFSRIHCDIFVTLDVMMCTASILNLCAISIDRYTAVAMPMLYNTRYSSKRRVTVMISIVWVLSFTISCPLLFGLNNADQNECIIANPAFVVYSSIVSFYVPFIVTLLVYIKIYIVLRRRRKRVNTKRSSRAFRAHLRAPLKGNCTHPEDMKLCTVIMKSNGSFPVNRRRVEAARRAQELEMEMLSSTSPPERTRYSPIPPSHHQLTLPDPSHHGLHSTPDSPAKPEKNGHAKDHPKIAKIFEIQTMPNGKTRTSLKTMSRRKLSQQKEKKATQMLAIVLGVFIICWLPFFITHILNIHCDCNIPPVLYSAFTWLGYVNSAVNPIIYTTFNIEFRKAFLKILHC
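Agonist mode: compounds alone added to overnight-plated D2 PathHunter cells for 90 min at 37 C, with 57 uM final dopamine (EC100) defining full response. Beta-arrestin recruitment detected by chemiluminescent reagent, read after 1 h at ambient temperature.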
Six1-Eya2 inh – qHTS Assay for Inhibitors of the Six1/Eya2 Interaction; Homeobox protein SIX1 (Homo sapiens) + Protein phosphatase EYA2 (Homo sapiens), …; 360,000 tested, 0.56% active; activity change, % (concentration not given with the values); AID 651725, 2012; AlphaScreen GST-Six1/His-Eya2 binding, biochemical; active compounds read low; control for the full effect not named in the record; in the data active = activity change below about -65%; inconclusive = about -30% to -65%; inactive = above about -30%; further: on the % scale 0 is the no-effect control and ±100 the full control effect
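GST-Six1 + His-Eya2 (5X stock: 250/500 nM); Tris pH 8.0, 300 mM NaCl, 0.05% BSA, 0.02% Tween 20; GSH donor/Ni acceptor beads; 1 h 37 °C dark; AlphaScreen readout.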
D2 potentiator – Beta-Arrestin HTS for Positive Allosteric Modulators of the Human D2 Dopamine Receptor: Potentiators. D(2) dopamine receptor (Homo sapiens), P14416. DiscoveRx D2 beta-arrestin cells, luminescence, 90 min; 100% = 57 uM dopamine signal. potentiation, % (concentration not given with the values). 360,000 tested, 0.23% active. AID 624464, 2012; active = potentiation of 50% or more; inconclusive = 30% to 50%; inactive = 30% or less;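 further: compound concentration not given in the record; tested on top of an EC20 dose of dopamine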
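PathHunter beta-arrestin assay in DiscoveRx D2 cells. Compounds were added with an EC20 of dopamine (50 nM final) for 90 min at 37 deg C. Luminescence was read 1 h after detection reagent, with 57 uM dopamine as the EC100 control.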
gsp antagonist – qHTS for Antagonists of gsp, the Etiologic Mutation Responsible for Fibrous Dysplasia/McCune-Albright Syndrome: qHTS. gsp-mutant cells, cAMP HTRF, 30 min; control for the full effect not named in the record. Potency, µM (series often up to 76.9 µM), for inactives: top-dose activity change, negative = inhibition, most hits filed as inhibitors. 340,000 tested, 0.4% active; active = falling curve of any shape with a large fitted effect; inconclusive = falling curve, mostly with a smaller effect; inactive = flat or rising curve; cell line not stated here;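 further: intracellular cAMP measured with PDE inhibitor Ro 20-1724 present during compound exposure; potency means the concentration at half of the fitted maximal effect; on the % scale 0 is the no-effect control and ±100 the full control effect; nearly all actives have a fitted effect of over 65% in size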
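G418-selected cells were plated in DMEM/10% FBS for 16-24 h at 37C, then treated with compounds plus the PDE inhibitor […] (300 uM solution added) for 30 min at 37C. Intracellular cAMP was measured by HTRF after 30 min lysis at room temperature.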
Starred values were filed as active, the others as inactive; u = inconclusive; x = not tested or not shown; [ ] = another dose, or the depositor's remark.

SMILES	CtBP-E1A blk	gsp ag	D2 agonist	Six1-Eya2 inh	D2 potentiator	gsp antagonist
CCOc1ccc(NC(=S)NC(=O)/C=C/c2ccco2)cc1	-4	8%[15.4 µM]	12	-12	1	2%
Cc1c(C(=O)NCc2ccc3c(c2)OCCO3)sc(=O)n1Cc1cccc(C(F)(F)F)c1	-24	x	-1.7	0	-5	x
CCOC(=O)N1CCN(C(=O)c2cccc(S(=O)(=O)Nc3ccccc3Cl)c2)CC1	-6	u	0.6	-1	7	-6%
CCOC(=O)c1cc(-c2ccccc2)n(CC(=O)Nc2ccc(OC)c(OC)c2)c1C	-4	-8%	1.6	-3	3	-11%
CC1=CC(C)(C)Nc2ccc(OC(=O)c3ccco3)cc21	4	-23%	7.0	-18	51*	1%
Cc1ccccc1CN1CCN(S(C)(=O)=O)CC1	-12	u	-0.6	-6	-10	12%
N#CC1=C2C=Cc3ccccc3N2CCCC1=O	6	-58%[inhibitor]	-1.9	4	-6	3%
COc1ccc(NC(=O)NNC(=O)c2ccc3ccccc3c2O)cc1OC	-1	u	-2.1	3	-6	9%
Cc1c(Cl)cccc1NC(=O)CNC(=O)C1CCN(C(=O)Nc2ccccc2)CC1	3	9%	4.4	1	1	8%
Cn1c(N)c(C(=O)COC(=O)CNC(=O)c2ccccc2)c(=O)n(C)c1=O	-6	2%[15.4 µM]	-0.2	-14	-16	10%
O=C(Cn1ccc([N+](=O)[O-])n1)NCc1cccs1	5	21%	0.1	1	-9	1%
CCC(Oc1ccccc1)C(=O)Nc1ccc(S(=O)(=O)N2CCOCC2)cc1 (configuration not stated)	15	-37%	2.0	1	2	-1%
Cc1ccccc1NC(=O)/C(C#N)=C/c1ccc[nH]1	-2	u	-0.7	-2	-10	7%
Cc1nn(CCO)c(C)c1Oc1ccccc1O	7	19%	-7.5	5	17	-4%
COc1ccc(S(=O)(=O)N2CCC(C(=O)NCCCN3CCOCC3)CC2)cc1	x	-15%	0.7	1	-7	-1%
CCOC(=O)c1ccc(NC(=O)CC2Sc3ncnn3C2=O)cc1 (configuration not stated)	-1	15%	3.0	-1	6	6%
Cc1cc(C)nc(-n2nc(C)c3c(C(=O)O)cc(-c4cccc(Br)c4)nc32)n1	x	u	-2.9	6	-10	-6%
COc1cc2c(cc1OC)CN(CC(=O)Nc1ccccc1C(=O)NC1CC1)CC2	-5	0%	-4.7	2	-4	1%
Cc1cc2oc(=O)c(CC(=O)NCCCO)c(C)c2c2occ(C(C)(C)C)c12	-12	u	4.4	-1	-7	-12%
COc1ccc(-c2cc(-c3n[nH]c(=S)n3-c3ccccc3Cl)[nH]n2)cc1	-6	13%	8.7	-1	1	-10%
COc1cc(C2CC(c3ccccc3)=NN2c2ccccc2)ccc1OCC(=O)O (configuration not stated)	9	u	1.5	4	5	-14%
CC(C)n1cc(CN2CCCC(C(=O)Nc3cccc(-c4cc5ccccc5[nH]4)c3)C2)cn1 (configuration not stated)	-19	-1%[15.4 µM]	1.9	9	1	6%
CC1(c2ccccc2Cl)NC(=O)N(CC(=O)N2CCc3ccccc32)C1=O (configuration not stated)	-7	-17%	-3.7	1	-7	-7%
c1csc(C2Nc3cccc4cccc(c34)N2)c1	-9	-14%	6.6	-7	26	-14%
CCOC(=O)C1CCN(c2nc3ccccc3nc2C(C#N)C(=O)OC(C)C)CC1 (configuration not stated)	3	3%	-0.6	1	-5	-16%
COc1cc(OC)cc(-c2c(-c3cccs3)c3cc(-c4ccc(C(N)=O)cc4)ccc3n2C)c1	x	u	1.3	-5	14	5%
COC(=O)c1[nH]c2c(c1C)C(=O)CC(c1ccc(C)cc1)C2 (configuration not stated)	0	1%	1.3	7	-16	-2%
COc1cc(OC)c(S(=O)(=O)Nc2ccccc2N2CCOCC2)cc1NC(C)=O	-2	-26%	1.5	4	-2	-1%
Cc1cc(OCC(O)CN2CCN(c3ccccn3)CC2)cc(C)c1Cl (configuration not stated)	-6	9%[15.4 µM]	u	-4	5	-2%
Cc1ccc(-c2noc(CCC(=O)NC3CCCC3)n2)cc1	6	-1%[15.4 µM]	2.0	0	-7	4%

Six compounds out of the list above, arranged by their value in gsp antagonist, highest first:
SMILES	CtBP-E1A blk	gsp ag	D2 agonist	Six1-Eya2 inh	D2 potentiator	gsp antagonist
Cc1ccccc1CN1CCN(S(C)(=O)=O)CC1	-12	u	-0.6	-6	-10	12%
Cc1c(Cl)cccc1NC(=O)CNC(=O)C1CCN(C(=O)Nc2ccccc2)CC1	3	9%	4.4	1	1	8%
CCOc1ccc(NC(=S)NC(=O)/C=C/c2ccco2)cc1	-4	8%[15.4 µM]	12	-12	1	2%
COc1cc2c(cc1OC)CN(CC(=O)Nc1ccccc1C(=O)NC1CC1)CC2	-5	0%	-4.7	2	-4	1%
COC(=O)c1[nH]c2c(c1C)C(=O)CC(c1ccc(C)cc1)C2 (configuration not stated)	0	1%	1.3	7	-16	-2%
Cc1nn(CCO)c(C)c1Oc1ccccc1O	7	19%	-7.5	5	17	-4%

(next part)
SMILES	CtBP-E1A blk	gsp ag	D2 agonist	Six1-Eya2 inh	D2 potentiator	gsp antagonist
C=CCSc1cc(C)nc2c(-c3ccccc3)c(C)nn12	5	-6%[15.4 µM]	-10.0	37	-5	-33%
O=C(NCCOc1ccccc1)C1CCC(=O)N(CCc2ccccn2)C1 (configuration not stated)	-16	-11%	-2.9	-2	-14	7%
O=C(N/N=C\c1ccc(CNS(=O)(=O)c2ccccc2)o1)C(=O)Nc1ccc(F)cc1	7	u	0.5	3	8	-5%
CC(/C=N/NC(=O)c1ccc2nc(C)[nH]c2c1)=C\c1ccccc1	12	-34%[inhibitor]	-3.1	13	-15	5%
CSCC[C@H](NC(=O)c1ccc(Cl)c([N+](=O)[O-])c1)c1nc2ccccc2[nH]1	-14	u	-7.2	-19	-41	-5%
COC(=O)c1ccc(NS(=O)(=O)c2cc(C)ccc2OC)cc1	6	-19%	-3.3	0	11	-27%
CCOc1ccc(NC(=O)CN(C)C(=O)c2c(C)nn(-c3ccccc3)c2Cl)cc1OCC	-2	17%	-1.9	-8	-8	12%
COc1ccccc1C(=O)NCC(=O)OCC(=O)N(CC(C)C)c1c(N)n(Cc2ccccc2)c(=O)[nH]c1=O	-13	-2%	-0.1	3	-11	6%
Cc1ccccc1C(=O)NC1CCN(CC(=O)NCc2cccs2)CC1	3	2%	-1.1	5	-15	-1%
CN(C)/C=C1\SC(=S)N(c2ccc(F)cc2)C1=O	-1	12%	-2.7	-4	-1	7%
CCN(CC)CCCNC(=O)c1ccc(N2CCCCC2)c(NS(=O)(=O)c2ccc(C)cc2)c1	x	-3%	2.3	-5	-14	10%
Cc1cccc(S(=O)(=O)Nc2cccc(-c3cn4ccsc4n3)c2)c1	-28	-11%	-0.2	-29	16	-5%
CC(C)C(=O)NC(=S)Nc1ccccc1N1CCN(C(=O)c2ccccc2)CC1	1	1%	-2.5	0	9	-18%
CC(C)Nc1nc(-c2ccncc2)nc(-c2ccc(Cl)cc2)c1C#N	x	15%[15.4 µM]	-2.9	6	-5	-17%
c1csc(COc2ccccc2CNC2CCCCC2)c1	5	9%	-2.2	1	-43	8%
O=C(NC1(C(F)(F)F)C(=O)Nc2c1c(=O)[nH]c(=O)n2-c1ccc(F)cc1)c1cccnc1 (configuration not stated)	3	-12%	-6.0	0	-11	4%
CCSc1nnc(NC(=O)c2nc3nc(C)cc(C)n3n2)s1	0	-9%[15.4 µM]	-1.7	-2	-7	-3%
NC(=S)NNC(=O)COc1ccccc1O	5	3%	-4.2	1	-7	5%
Cn1nccc1NC(=O)CC(CC(=O)O)c1ccccc1 (configuration not stated)	x	2%	3.5	3	1	4%
CC1CCC(C(C)C)C(OCC(O)CNC(C)C)C1 (configuration not stated)	7	-3%	-4.5	3	-16	10%
CCCN1C(=O)SC(CC(=O)Nc2ccc(C)cc2)C1=O (configuration not stated)	5	u	-4.2	-2	-28	5%
O=C1CCc2cc(S(=O)(=O)NC3CCCCC3)ccc2N1	x	u	-2.3	4	4	1%
COc1cccc2c(N/N=C/c3ccccc3)cc(C)nc12	-11	3%	-4.8	-4	-5	-23%
CCN(CC(=O)Nc1ccc(NC(C)=O)cc1)C(=O)c1ccccc1Sc1ccccc1C#N	x	2%	0.7	4	-9	5%
Cc1cc(C)cc(N(CC(=O)N2CCc3ccccc32)S(=O)(=O)c2c(C)noc2C)c1	-21	-23%	-5.1	7	-7	-1%
O=C(/C=C/c1ccc([N+](=O)[O-])s1)N1CCCC1	x	-11%	0.4	6	1	-7%
COc1ccc(Cl)cc1C(=O)NC(=S)Nc1ccccc1N1CCOCC1	-13	u	-2.0	-6	-6	3%
CCCN1CNc2c(c(=O)[nH]c(=S)n2CCc2ccc(OC)c(OC)c2)C1	-6	-10%[15.4 µM]	0.1	10	-11	-6%
Cc1ccc(C)c(NC(=O)NNC(=O)c2cc3occc3[nH]2)c1	x	-22%	4.2	1	1	6%
C=CCNC(=O)COC(=O)c1nc2nccc(C)n2n1	-1	u	-3.1	7	-6	7%
C/C(=N\NC(=O)c1ccc(Cn2cc(Br)cn2)o1)c1cccc(NC(=O)C(C)C)c1	-28	2%[15.4 µM]	-1.1	-2	1	-13%
Cc1ccc(CN2C(=O)N/C(=C\c3cccn3-c3cccc(C(=O)O)c3)C2=O)cc1	-4	-4%[15.4 µM]	1.3	u	5	u
CCOc1ccc(-c2ccc(NS(=O)(=O)c3cc([N+](=O)[O-])c(C)c([N+](=O)[O-])c3)cc2)nn1	-9	1%	7.6	2	3	u
O=C(NCc1ccccc1F)C1CC(=O)N(c2ccc3c(c2)OCCO3)C1 (configuration not stated)	1	-6%	3.6	-1	5	4%
O=C1/C(=C/c2cccs2)SC(=S)N1CC(=O)N1CCCCC1CCO (configuration not stated)	x	-9%	-0.4	-17	-11	13%
Cc1cc(-n2nc(C)cc2C)n2nc(C)c(-c3ccc(Cl)cc3)c2n1	-8	7%	0.5	-7	1	13%
COc1ccc(CC(=O)Nc2ccc(C)cc2O)cc1S(=O)(=O)N1CCOCC1	5	-6%	-0.1	-3	-2	1%
CCOc1cc2nc(-c3ccc(OC)c(OC)c3)nc(NCCCN3CCOCC3)c2cc1OC	-88*	-42%[inhibitor]	-1.2	-91*	-9	-16%

Assay outcomes (PubChem BioAssay)
